Screening data from PubChem BioAssay.
Ecoli growth: inhibitors of Escherichia coli growth; hit rate 0.21% among 330,000; OD600 absorbance (test concentration not listed); OD600, 23 h; hits give low values;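 active = OD600 absorbance below the run mean of sample wells minus 3.6 SD, in any replicate, cut at about 0.56 in these data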;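 also: stock transfer was 300 nL into about 60 µL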
ALR inh: human ALR oxidase inhibition via reduced H2O2. purified ALR, DTT oxidation, H2O2 HRP-luminol luminescence. inhibition, % (no concentration beside the values). hit rate 3.8% among 290,000. AID 485317;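 active = mean and each replicate at 75% or more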;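 also: stock transfer was 7.5 nL into about 7.5 µL; 0% = neutral wells and 100% = wells with inactivated enzyme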
Target sequence (P55789 whole entry, looked up): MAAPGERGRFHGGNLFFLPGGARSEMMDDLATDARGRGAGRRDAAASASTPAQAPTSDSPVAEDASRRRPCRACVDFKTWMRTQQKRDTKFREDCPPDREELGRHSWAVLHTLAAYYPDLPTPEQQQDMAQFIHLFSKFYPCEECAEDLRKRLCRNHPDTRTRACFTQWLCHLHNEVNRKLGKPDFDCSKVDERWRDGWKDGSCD
B2AR ag: agonists of human beta-2 adrenergic receptor inducing internalization; Am2.2-beta2AR cells, FAP receptor internalization, flow cytometry; reference of the scale not given here; AID 504454; hit rate 0.43% among 340,000; response, % (test concentration not listed);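 active = response above a set limit, near 3 SD of response in nonfluorescent compounds, cut at about 42% in these data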;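 also: stock transfer was 100 nL into about 11 µL; a reference agonist was the positive control; negative values mostly stem from fluorescent compounds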
Target sequence (P07550 whole entry, looked up): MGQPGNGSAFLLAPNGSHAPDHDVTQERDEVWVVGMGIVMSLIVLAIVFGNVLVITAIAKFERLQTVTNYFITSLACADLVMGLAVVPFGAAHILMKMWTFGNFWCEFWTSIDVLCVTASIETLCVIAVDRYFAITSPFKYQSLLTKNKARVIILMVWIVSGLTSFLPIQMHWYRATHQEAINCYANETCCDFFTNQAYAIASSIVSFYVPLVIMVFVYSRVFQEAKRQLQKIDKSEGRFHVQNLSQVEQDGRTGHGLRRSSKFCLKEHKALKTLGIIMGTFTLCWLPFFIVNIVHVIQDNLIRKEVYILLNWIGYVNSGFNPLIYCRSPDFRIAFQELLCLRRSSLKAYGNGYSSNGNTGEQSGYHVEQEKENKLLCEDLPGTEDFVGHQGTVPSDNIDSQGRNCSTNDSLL
FGF22 binding: binders of recombinant human FGF22 by thermal shift | hit rate 1.5% among 340,000 | AID 651658 | Q9HCT0 | calls only at 9.99 µM | SYPRO orange fluorescence; percent of sucrose octasulfate shift, DMSO zero;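 active = melting point raised past a set limit in the mean and every replicate; three in four hits are not shown here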
HNF4A DNA FP: change in binding of human HNF4 alpha to DNA; P41235; HNF4a-FITC DNA binding, fluorescence polarization, 1 h; activity change, % at 10 µM; hit rate 0.3% among 360,000; AID 1224865; in the data active = activity change above about 30%, passing the limit was not always enough;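 also: controls were the assay level and a saturating level of protein; the project sought stronger binding though the title names inhibitors; some compounds called inactive have numbers as strong as hits; positive values seem to mean higher polarization but the record does not say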
rRNA inh HTS: selective bacterial rRNA inhibition in E. coli; GFP signal change (wild-type ribosome), % (test concentration not listed); hit rate 1.6% among 350,000; E. coli WT GFP vs humanized-ribosome RFP mutants, fluorescence, 24 h; hits give low values; DMSO median 0, no signal -100;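 active = significant combined selectivity score with lowered wild-type GFP, culture density cut under 30%, mutant RFP and density less affected; inactive = any of these conditions unmet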; also: one replicate is shown; some compounds called inactive have numbers as strong as hits
UCH37 inh: inhibitors of human deubiquitinating enzyme UCH37; hit rate 0.33% among 330,000; Q9Y5K5; purified proteasome/UCH37, Ub-AMC cleavage fluorescence; inhibition, % (no concentration beside the values);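 active = mean of two replicates above 20%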;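 also: 0% = compound-free wells with enzyme and 100% = wells lacking proteasome; stock transfer was 100 nL into about 20 µL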
Target sequence (Q9Y5K5 whole entry, looked up): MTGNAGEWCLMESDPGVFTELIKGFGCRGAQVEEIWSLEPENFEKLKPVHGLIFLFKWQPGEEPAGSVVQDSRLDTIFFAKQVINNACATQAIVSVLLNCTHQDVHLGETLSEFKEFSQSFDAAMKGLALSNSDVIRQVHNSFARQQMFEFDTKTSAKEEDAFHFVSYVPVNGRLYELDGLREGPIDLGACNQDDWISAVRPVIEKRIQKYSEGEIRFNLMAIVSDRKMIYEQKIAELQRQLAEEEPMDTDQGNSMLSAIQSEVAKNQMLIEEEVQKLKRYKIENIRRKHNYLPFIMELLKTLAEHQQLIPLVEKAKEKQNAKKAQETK
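System: Proteasome-associated human UCH37 deubiquitinase; Input: 0.15 nM proteasome in added enzyme buffer; Also added: Ub-AMC substrate from 1 µM stock; Incubation: 30 min compound-proteasome preincubation then 25 min substrate reaction, room temperature; Detection: fluorescence, ex 355 nm, em 460 nm; Read-out: % inhibition of Ub-AMC cleavage fluorescence; Benchmarks: no-proteasome and no-compound wells.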
rRNA inh HTS OD600: also measured in rRNA inh HTS; calls as there; OD600 change, %; measured here: OD600 growth;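 optical density of the mix in the first replicate; 0 = DMSO median and -100 = no signal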
rRNA inh HTS RFP: second read-out of rRNA inh HTS, no call of its own (marks repeat the call); RFP signal change, %; measured here: RFP humanized mutant strains;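 first replicate; 0 = DMSO median and -100 = no signal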
* marks the source's active call; other numbers are inactive results; i = inactive; nt = no result given. An excerpt (hit frequency here may not be typical).

SMILES	Ecoli growth	ALR inh	B2AR ag	FGF22 binding	HNF4A DNA FP	rRNA inh HTS	rRNA inh HTS OD600	rRNA inh HTS RFP	UCH37 inh
Cc1cc(NC(=O)/C(C#N)=C/c2ccc(-c3ccc(SC(F)F)cc3)o2)n(-c2ccccc2)n1	0.71	7	11	i	151	34	19	4.0	-7.7
CCOC(=O)/C=C1\NC2(CCCCC2)Cc2cc(OC)c(OC)cc21	0.66	4	-6	i	1.8	11	9	0.3	-7.0
CCC(C)Cn1c(S(=O)(=O)O)nc2ccccc21 (stereo not drawn)	0.75	-8	-3	nt	0.3	nt	nt	nt	0.4
C/C(=N/NC(=O)c1ccoc1C)c1cccc(NC(=O)C2CC2)c1	nt	24	-12	nt	0.0	nt	nt	nt	nt
CCn1nc(C)c(NC(=O)c2ccc(Br)o2)c1C	0.68	-9	16	i	-3.0	4	2	-4.2	0.1
CC(C)[Si]1(C(C)C)OCC2OC(n3cnc4c(N)ncnc43)C(N)C2O[Si](C(C)C)(C(C)C)O1 (stereo not drawn)	nt	nt	-2	i	-5.1	-47	-74	-0.3	nt
Cc1nc(N2CCOCC2)nc(N2CCC(C)CC2)c1[N+](=O)[O-]	0.66	nt	-4	i	0.1	nt	nt	nt	2.3
Cc1ccccc1C(=O)O/N=C(\c1ccccc1)c1ccccn1	nt	-9	16	nt	1.7	nt	nt	nt	nt
CCn1c2ccccc2c2nnc(SCC(=O)NCCOC)nc21	0.69	-2	-7	nt	-0.5	nt	nt	nt	5.1
COc1cc2c(cc1OC)C(c1ccccc1)N(S(C)(=O)=O)CC2 (stereo not drawn)	0.72	-10	-4	i	2.1	-30	-42	-20	3.1
Cc1ccc(S(=O)(=O)c2nnn3c2nc(N2CCN(c4ccccn4)CC2)c2ccccc23)cc1C	0.69	-1	5	i	-5.1	-1	1	-9.5	-62
CCOC(=O)N1CCN(C(=O)Cn2ncn3nc(-c4cccs4)cc3c2=O)CC1	0.71	-2	6	nt	0.3	nt	nt	nt	-0.3
Cc1ccc(S(=O)(=O)NC2=NCN(CCOC(=O)c3ccc([N+](=O)[O-])cc3)CN2)cc1	0.75	0	-3	nt	-1.9	nt	nt	nt	2.6
CCCCc1nnc(SCc2ccc(OCC)cc2)n1N	0.71	nt	-1	nt	0.4	nt	nt	nt	0.5
CCOc1ccc(-c2c(C(=O)N/N=C/c3ccc(OC)cc3)nnn2-c2nonc2N)cc1	nt	1	9	nt	-0.2	nt	nt	nt	nt
CN(CCO)c1ccc(/C=N/Nc2nncc3ccccc23)cc1	nt	nt	23	i	-3.4	-6	0	-8.6	nt
O=C(NCCCn1ccnc1)c1cc(-c2ccccc2)on1	0.67	-4	-3	i	-1.3	-2	1	-0.1	3.3
Cc1cc(NC(=O)CSc2ncnc3ccccc23)no1	0.76	12	-3	i	3.3	11	12	0.1	7.5
CCCCN(CCCC)CC(O)COc1ccc(Br)cc1 (stereo not drawn)	0.65	0	-3	i	-2.2	3	-18	-7.7	2.8
CSCCOC(=O)C1=C(C)NC(=O)CC1c1ccccc1Cl (stereo not drawn)	0.74	2	0	nt	0.6	nt	nt	nt	2.0
COc1ccc(C2=CSC3=NCCN23)cc1Cl	nt	13	-7	i	-4.8	-12	-2	-6.2	nt
CN(CC(=O)NCCc1ccc(F)cc1)Cc1cccs1	0.63	-3	5	i	2.4	-10	-13	0.6	-0.8
Cc1ccc(NS(=O)(=O)c2cc(N)ccc2Cl)c(C)c1	0.72	nt	-5	i	0.9	-11	-12	-5.3	1.0
COc1ccc(CNc2nnnn2C)c(OC)c1	0.62	1	-4	i	-0.9	3	12	-8.7	1.8
Cc1cc(N2CCN(C(=O)Oc3ccc([N+](=O)[O-])cc3)CC2)c2ccccc2n1	nt	nt	nt	i	2.4	-7	-6	3.5	nt
CC(O)C(O)C(O)C(O)/C=N/NC(=O)c1ccccc1 (stereo not drawn)	nt	29	1	i	0.6	nt	nt	nt	nt
CC(=O)OC1C(OC(C)=O)C2C(C)CC3OC(=O)C(C)C3CC2(C)C1OC(C)=O (stereo not drawn)	nt	nt	nt	i	-1.4	-3	1	6.0	nt
Cc1cccc(C)c1NC(=O)c1cc(S(=O)(=O)N2CCOCC2)ccc1F	0.68	nt	5	nt	-3.0	nt	nt	nt	3.2
CN(c1ccccc1)S(=O)(=O)c1ccc(NC(=S)NC(=O)C2CC2)cc1	0.68	7	5	i	0.7	nt	nt	nt	2.4
CC(=O)Nc1ccc(NC(=O)C(C)OC(=O)CC2CCCC2)cc1 (stereo not drawn)	0.65	-7	1	i	-1.1	3	2	0.9	0.0
O=C(Nc1ccc(S(=O)(=O)Nc2nccs2)cc1)C(F)(F)F	0.7	5	2	i	-3.0	-23	-35	-4.4	0.5
COC(=O)C(C(=O)OC)c1ccc(-n2cccc2)cc1	0.69	-2	5	i	-2.3	10	7	15	0.0
CC(C)CNS(=O)(=O)c1cc(C(=O)N2CC(C)OC(C)C2)c(Cl)cc1Cl (stereo not drawn)	0.69	-5	7	i	3.0	0	2	-0.1	1.4
CN(C)CCCN(C(=O)C1COc2ccccc2O1)c1nc2ccc(F)cc2s1 (stereo not drawn)	0.67	-21	6	i	2.9	11	3	-10	5.5
O=C(CN1C(=O)COc2ccccc21)NCCN1CCC(Cc2ccccc2)CC1	0.65	-6	-6	nt	0.5	nt	nt	nt	4.1
CCc1nc2c(OCc3ccc(C(F)(F)F)cc3)cccn2c1N(C=O)Cc1ccc(OC)cc1	nt	nt	nt	i	1.1	-7	-23	24	nt
CC(=O)C1=C(O)C(=O)N(Cc2ccccc2)C1c1ccco1 (stereo not drawn)	0.72	-3	31	nt	-4.4	nt	nt	nt	6.8
CC(C)(C)OC(=O)N1CCC(c2c(C(=O)O)cnn2-c2ccc(Cl)cc2)CC1	0.64	21	5	nt	3.4	nt	nt	nt	-1.3
CC(=O)Nc1ccc(S(=O)(=O)N2CCN(S(=O)(=O)N3CCC(C)CC3)CC2)cc1	0.69	-2	3	i	0.0	9	7	3.3	2.7
O=C(CCCc1ccccc1)NC1CC1	0.69	nt	-2	nt	-5.5	nt	nt	nt	6.0
Cn1cc(Cl)c(C(=O)N/N=C/c2ccc3c4c(cccc24)CC3)n1	nt	0	3	nt	-2.8	nt	nt	nt	nt
CC1CC(=S)Nc2ccccc2N1C(=O)Nc1ccccc1 (stereo not drawn)	0.65	5	7	i	-2.5	17	15	-0.2	5.5
CNC(=O)c1sc(-c2ccc(Cl)cc2)nc1C	0.69	-1	10	nt	1.9	nt	nt	nt	-0.7
COc1ccc(OC)c(NC(=O)NNC(=O)COc2ccc(-c3ccccc3)cc2)c1	0.73	1	0	i	0.8	-2	-3	6.0	3.6
O=C(NCCCn1ccnc1)c1ccc(N2CCCCCC2)c([N+](=O)[O-])c1	0.71	-4	-6	i	5.3	-6	-7	-2.3	4.0
CC(C)(C)OC(=O)N/N=C/c1cc(N=Nc2ccccc2)ccc1O	nt	-33	2	nt	-3.9	nt	nt	nt	nt
COc1cccc(CNC(=O)CCCn2ncn3c(cc4occc43)c2=O)c1	0.65	-6	-9	i	5.2	-4	-2	-1.5	0.0
CNC(=O)C1Cc2c(-c3ccc4c(c3)OCO4)ccnc2O1 (stereo not drawn)	nt	nt	nt	i	-0.4	2	-6	-2.5	nt
O=C(NCC12CC3CC(C1)CC(CNC(=O)N1CCCC1)(C3)C2)N1CCCC1	0.71	-9	7	nt	0.0	nt	nt	nt	4.0
NC(=O)/C(=C/c1ccco1)C(N)=S	0.65	3	2	i	-11	11	2	33	11
CN1C(=O)[C@@H]2[C@H](C1=O)[C@@H]1C(=O)Nc3ccccc3C(=O)N1[C@@H]2c1cccc(Br)c1	nt	-15	-2	i	-0.4	1	10	-2.1	-11
Cc1nnc(SCC(=O)N(C2CCCCC2)C2CCS(=O)(=O)C2)n1C (stereo not drawn)	0.69	-6	-4	i	0.3	15	-1	-2.9	1.5
O=C(CCN1C(=O)C2C3CCC(C3)C2C1=O)Nc1ccc(Br)cc1 (stereo not drawn)	0.66	-2	-4	nt	1.8	nt	nt	nt	1.8
CCn1c(-c2cc(-c3ccc(OC(C)C)cc3)nc3ccccc23)n[nH]c1=S	0.7	7	1	i	-0.2	-28*	-14*	-6.0*	-257
CC(C)(C)OC(=O)NCCNC(=O)c1cccs1	0.65	46	-4	i	0.8	8	0	1.6	6.0
O=C1NC[C@H](CCCCN2CCN(Cc3ccccc3)C(=O)C2=O)N(CC2CCCCC2)C1=O	nt	nt	nt	i	-2.0	18	8	1.6	nt
O=C(CCN1C(=O)C2C3C=CC(C3)C2C1=O)N1CCN(c2cccc(Cl)c2)CC1 (stereo not drawn)	0.72	20	-2	nt	-4.1	nt	nt	nt	-0.9
O=C(O)CSc1nc(C(F)(F)F)cc(=O)n1-c1ccccc1	0.67	nt	-4	nt	1.7	nt	nt	nt	5.3
CCOC(=O)C(C)NC(=O)C(NC(=O)C1CCC(CC)CC1)C(C)C (stereo not drawn)	0.7	5	8	nt	0.8	nt	nt	nt	4.7
CS(=O)(=O)NCCNc1ccc(Cl)cc1[N+](=O)[O-]	0.72	-8	-5	i	-2.6	-2	4	0.3	6.1

Complete entries as entered above. Values in the order: Ecoli growth | ALR inh | B2AR ag | FGF22 binding | HNF4A DNA FP | rRNA inh HTS | rRNA inh HTS OD600 | rRNA inh HTS RFP | UCH37 inh
`CC(=O)Nc1ccc(NC(=O)C(C)OC(=O)CC2CCCC2)cc1` (stereo not drawn) is listed with 0.65 | -7 | 1 | i | -1.1 | 3 | 2 | 0.9 | 0.0
`CCOC(=O)N1CCN(C(=O)Cn2ncn3nc(-c4cccs4)cc3c2=O)CC1` is listed with 0.71 | -2 | 6 | nt | 0.3 | nt | nt | nt | -0.3
`Cc1ccc(NS(=O)(=O)c2cc(N)ccc2Cl)c(C)c1` is listed with 0.72 | nt | -5 | i | 0.9 | -11 | -12 | -5.3 | 1.0

Going on with the list.
SMILES	Ecoli growth	ALR inh	B2AR ag	FGF22 binding	HNF4A DNA FP	rRNA inh HTS	rRNA inh HTS OD600	rRNA inh HTS RFP	UCH37 inh
COc1ccc(C2Nc3ccccc3NC3=C2C(=O)CC(C)(C)C3)c(OC)c1OC (stereo not drawn)	0.69	98*	-2	i	0.8	18	5	34	8.4
Cc1cccc(-c2cc3c(N=O)c4ccccc4c-3n[nH]2)c1	nt	-2	8	i	-1.0	4	25	6.7	nt
CN(C)C(=O)CSc1nnc(-c2cccnc2)n1-c1ccccc1	0.73	-7	-30	i	0.1	7	9	-2.4	2.1
CCOC(=O)c1cnc2c(-c3ccccc3)cnn2c1N	0.72	-8	-11	nt	5.1	nt	nt	nt	-73
CCOc1cc(C(=O)CCC(=O)OCC(=O)Nc2ccc(C)c(S(=O)(=O)N(C)C)c2)ccc1O	0.71	39	-5	nt	-2.6	-18	-14	0.1	0.2
O=C(Nc1ccc2c(c1)OCO2)c1ccc(Cl)s1	0.68	-5	-1	nt	-0.6	nt	nt	nt	4.9
CC(C)[C@H](NS(=O)(=O)c1ccc(Cl)cc1)C(=O)OCC(=O)NCCN1C(=O)CSC1=O	0.67	-2	11	i	2.1	3	9	0.2	-0.8
COc1cc(C(=O)Nc2ccc3c(c2)CCCN3C(=O)c2ccco2)c([N+](=O)[O-])cc1OC	0.69	-12	12	i	-0.3	-5	-4	-3.4	5.2
COC(=O)Cn1ccc2cc(S(=O)(=O)N3CCCCC3)ccc21	0.69	-1	19	i	1.2	-3	-4	1.7	2.1
O=C1CC(=O)NC(SCC(=O)Nc2ccccc2[N+](=O)[O-])=N1	0.66	nt	-4	i	-21	7	5	-2.0	9.5
COC1OC(c2ccccc2)=C(c2ccc(C(N)=O)cc2)c2ccc(F)cc21 (stereo not drawn)	nt	nt	nt	i	-0.6	-52	-60	-9.4	nt
